Screening data deposited in PubChem by Broad Institute.
MITF inhib – MITF inhibition; TRPM1 promoter luciferase, luminescence, 24 h; inhibition, % (concentration not given with the values); 0.28% of 37,000 active; AID 2240;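 active = most replicates at 85% or more, or half of them and the mean; inconclusive = half reach 85% but not the mean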;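 note: human melanocyte line stably carrying TRPM1 promoter luciferase reporter; 0% = vehicle wells and 100% = a positive control; the first replicate is given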
PD-1 reverse act – activators reversing PD-1 mediated T-cell inhibition. primary human CD4 T cells, PD-L1 beads, CellTiter-Glo 96 h. activation, % (test concentration not listed). 29,000 tested, under 10 active. AID 2316;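 active = replicate mean of 50% or more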;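 note: 0% = median vehicle wells and 100% = positive control; 100 nL library stock added to about 50 µL; numbers are from one replicate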
Hedgehog inh – Sonic Hedgehog pathway inhibition | Shh-LIGHT2 Gli-luciferase reporter, 30 h | inhibition, % (concentration not given with the values) | 2.1% of 22,000 active;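 active = replicate mean of 65% or more; inconclusive = mean lower but half the replicates past it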;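 note: pathway switched on by Shh-conditioned medium diluted 1 in 25 in low serum; 100 nL library stock added to about 40 µL; 0% = median of neutral wells and 100% = positive control level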
YB-1 expression – YB-1 expression inhibition; U2OS, qRT-PCR YB-1 vs CDIP delta delta Cp, 16 h; hits give high values; zero = DMSO, each unit about twofold; delta delta Cp (YB-1 minus CDIP) (concentration not given with the values); 0.37% of 30,000 active; AID 434959;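 active = delta delta Cp rounded down to an integer at or above 3, about 3 SD of DMSO wells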;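 note: higher means less YB-1 transcript or more CDIP transcript relative to DMSO; stock transfer was 100 nL into about 100 µL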
An asterisk follows results filed as active; u = inconclusive; x = not tested or not shown. These rows are one share of the data; rates above refer to the full screens.

SMILES	MITF inhib	PD-1 reverse act	Hedgehog inh	YB-1 expression
COc1ccc(S(=O)(=O)Nc2cccc3c2O[C@@H](CN(C)Cc2ccc(Oc4ccccc4)cc2)[C@@H](C)CN([C@@H](C)CO)C3=O)cc1	8	-0.5	43	-0.26
CNC[C@H]1Oc2c(NC(=O)C3CCOCC3)cccc2C(=O)N([C@@H](C)CO)C[C@H]1C	-3	0.9	-4	0.18
C[C@H](CO)N1C[C@H](C)[C@H](CN(C)S(=O)(=O)c2ccccc2)Oc2ccc(NS(=O)(=O)c3cn(C)cn3)cc2C1=O	6	1.1	x	-0.15
CCOC(=O)c1sc(SC)c2c1CCCC21SCCS1	-1	-1.0	36	-0.47
Cc1cc(C)cc(N2C(=O)CC(SCC(=O)Nc3ccc(Br)cc3)C2=O)c1 (stereo not given)	-16	-2.0	x	x
CC1OC(O[C@H]2CC[C@@]3(C)C(CC[C@]4(C)C3CC=C3C5CC(C)(C)CC[C@]5(C(=O)OC5OC(CO)C(OC6OC(CO)C(O)C(O)C6O)C(O)C5O)CC[C@]34C)C2(C)C)C(O)C(O)C1OC1OCC(O)(COC2OCC(O)C(OC3OCC(OC4OCC(O)(CO)C4O)C(O)C3O)C2O)C1O (stereo not given in full)	8	-0.3	-5	-0.051
CCc1ccc(CCC(=O)Nc2ccc(C)c(C)c2)o1	-72	-2.2	x	x
C[C@@H]1CN([C@@H](C)CO)C(=O)c2cc(NS(=O)(=O)c3ccccc3)ccc2O[C@H]1CN(C)Cc1ccc(Cl)c(Cl)c1	0	0.3	x	-0.2
Cn1c(SCC(=O)Nc2ccc(I)cc2)nnc1-c1cc2ccccc2o1	-18	0.4	x	x
C[C@H]1CN([C@@H](C)CO)C(=O)Cc2cc(NC(=O)Nc3ccc(F)cc3)ccc2O[C@H]1CN(C)Cc1ccc(C(=O)Nc2ccccc2N)cc1	30	-2.0	x	-0.71
CNC[C@@H]1Oc2c(NC(=O)Nc3ccc(C(F)(F)F)cc3)cccc2C(=O)N([C@@H](C)CO)C[C@@H]1C	-3	0.7	-61	0.41
Cc1noc(C)c1NC(=O)Nc1cccc2c1O[C@H](CN(C)S(=O)(=O)c1ccccc1)[C@@H](C)CN([C@@H](C)CO)C2=O	-14	x	-4	0.03
CS(=O)(=O)N(CC(=O)Nc1ccc(F)c(F)c1)c1cccc(Cl)c1	3	-1.7	x	x
COc1ccc(S(=O)(=O)N(C)C[C@@H]2Oc3c(NC(=O)Nc4ccc(F)cc4)cccc3C(=O)N([C@H](C)CO)C[C@H]2C)cc1	-4	x	28	0.095
CN=C(C)c1c(O)c2ccccc2oc1=O	-30	0.1	-13	-0.16
C[C@@H]1CN([C@@H](C)CO)C(=O)c2cc(NC(=O)Nc3ccc(F)cc3)ccc2O[C@H]1CN(C)C(=O)Nc1ccc(C(F)(F)F)cc1	35	-0.8	-38	-0.074
O=c1c(OC2OC(CO)C(O)C(O)C2OC2OC(CO)C(O)C(O)C2O)c(-c2ccc(O)cc2)oc2cc(O)cc(O)c12 (stereo not given)	x	x	-11	-0.21
CNC[C@@H]1Oc2ccc(NC(=O)Nc3c(C)noc3C)cc2C(=O)N([C@@H](C)CO)C[C@@H]1C	-1	1.0	-12	-0.13
COc1ccc(NC(=O)Nc2ccc3c(c2)C(=O)N([C@H](C)CO)C[C@@H](C)[C@@H](CN(C)S(=O)(=O)c2cccs2)O3)cc1	-7	x	2	0.48
C[C@H]1CN([C@@H](C)CO)C(=O)Cc2cc(NS(=O)(=O)c3ccc(F)cc3)ccc2O[C@H]1CN(C)C(=O)NC1CCCCC1	12	-0.5	-45	-0.76

Compound profiles, from the list above. Values in the order: MITF inhib | PD-1 reverse act | Hedgehog inh | YB-1 expression
Listed for C[C@H]1CN([C@@H](C)CO)C(=O)Cc2cc(NS(=O)(=O)c3ccc(F)cc3)ccc2O[C@H]1CN(C)C(=O)NC1CCCCC1 : 12 | -0.5 | -45 | -0.76
Listed for CNC[C@@H]1Oc2c(NC(=O)Nc3ccc(C(F)(F)F)cc3)cccc2C(=O)N([C@@H](C)CO)C[C@@H]1C : -3 | 0.7 | -61 | 0.41

Remaining list, next part.
SMILES	MITF inhib	PD-1 reverse act	Hedgehog inh	YB-1 expression
Cc1ccc(C(=O)/C=C2/NCCNC2=O)cc1	39	0.1	x	-0.13
COc1ccc(CCNC(=O)c2nn3c(C(F)(F)F)cc(-c4ccccc4)nc3c2Cl)cc1OC	31	0.1	x	x
Cc1noc(C)c1S(=O)(=O)N(C)C[C@@H]1Oc2c(NS(=O)(=O)c3cn(C)cn3)cccc2C(=O)N([C@@H](C)CO)C[C@@H]1C	2	x	-71	-0.25
C[C@@H]1CN([C@@H](C)CO)C(=O)c2cc(NC(=O)Cc3cn(C)c4ccccc34)ccc2O[C@@H]1CN(C)C(=O)Nc1ccc(F)cc1	5	-1.2	0	0.28
C[C@H](CO)N1C[C@H](C)[C@@H](CN(C)Cc2ccc(-c3ccccc3)cc2)Oc2c(NC(=O)NC3CCCCC3)cccc2C1=O	50	-3.4	30	0.1
COc1ccc(S(=O)(=O)Nc2ccc3c(c2)C(=O)N([C@H](C)CO)C[C@H](C)[C@@H](CN(C)CC2CCCCC2)OCCCC[C@@H](C)O3)cc1	6	x	x	0.27
CCOc1ccc(Nc2nc3cc(C)ccc3cc2C)cc1	12	0.9	20	-0.16
CNC[C@H]1Oc2ccc(NC(=O)Nc3ccc4c(c3)OCO4)cc2C(=O)N([C@H](C)CO)C[C@@H]1C	1	1.4	-6	-0.062
Cc1ccccc1NC(=O)CC(C(=O)O)N1CCOCC1 (stereo not given)	-25	3.2	x	x
CN(C)Cc1ccc(C(=O)Oc2ccc(C(C)(C)C)cc2)cc1	1	-2.0	x	-0.42
C[C@H](CO)N1C[C@H](C)[C@@H](CN(C)Cc2ccncc2)Oc2ccc(NC(=O)Nc3ccc(F)cc3)cc2C1=O	-6	0.7	9	-0.35
Cc1ccc(Cl)c(OCC(=O)Nc2sc(C)c(C)c2C(N)=O)c1	-11	0.8	x	x
Cc1ccc(S(=O)(=O)Nc2ccc3c(c2)C(=O)N([C@@H](C)CO)C[C@H](C)[C@@H](CN(C)S(=O)(=O)c2ccc(C)cc2)O3)cc1	3	0.7	x	-0.21
COc1ccc(CN(C)C[C@@H]2Oc3c(NS(=O)(=O)c4cccs4)cccc3C(=O)N([C@@H](C)CO)C[C@@H]2C)cc1	-10	-0.7	-78	-0.88
COc1ccc(S(=O)(=O)Nc2c(C)nc3nc[nH]n3c2=O)cc1	-3	0.5	x	x
COc1ccc(NC(=O)N(C)C[C@@H]2Oc3c(NC(=O)Nc4ccc(F)cc4)cccc3C(=O)N([C@@H](C)CO)C[C@@H]2C)cc1	-10	x	-4	0.46
C=CCn1c2ccccc2c2nnc(SCc3ccc([N+](=O)[O-])cc3)nc21	28	-1.7	x	x
C[C@H]1CN([C@@H](C)CO)C(=O)c2cc(NC(=O)Cc3cn(C)c4ccccc34)ccc2O[C@H]1CN(C)Cc1ccc(Oc2ccccc2)cc1	21	-1.7	x	-0.12
COCCCN1C(=O)c2oc3ccc(Br)cc3c(=O)c2C1c1cccc([N+](=O)[O-])c1 (stereo not given)	13	1.3	x	x
C[C@@H]1CN([C@@H](C)CO)C(=O)c2cccc(NC(=O)c3ccncc3)c2O[C@H]1CN(C)C(=O)Nc1ccc2c(c1)OCO2	-11	2.4	-108	-0.67

Random excerpt: 3 entries already listed.
SMILES	MITF inhib	PD-1 reverse act	Hedgehog inh	YB-1 expression
Cc1noc(C)c1S(=O)(=O)N(C)C[C@@H]1Oc2c(NS(=O)(=O)c3cn(C)cn3)cccc2C(=O)N([C@@H](C)CO)C[C@@H]1C	2	x	-71	-0.25
CCOC(=O)c1sc(SC)c2c1CCCC21SCCS1	-1	-1.0	36	-0.47
Cc1ccc(S(=O)(=O)Nc2ccc3c(c2)C(=O)N([C@@H](C)CO)C[C@H](C)[C@@H](CN(C)S(=O)(=O)c2ccc(C)cc2)O3)cc1	3	0.7	x	-0.21

Carrying on:
SMILES	MITF inhib	PD-1 reverse act	Hedgehog inh	YB-1 expression
COc1ccc(NC(=O)Nc2ccc3c(c2)CC(=O)N([C@H](C)CO)C[C@@H](C)[C@@H](CN(C)CC2CC2)O3)cc1	-1	0.5	x	-0.13
C[C@@H]1CN([C@@H](C)CO)C(=O)c2cc(NC(=O)Cc3cn(C)c4ccccc34)ccc2O[C@@H]1CN(C)S(C)(=O)=O	3	0.0	x	0.27
Cc1noc(C)c1S(=O)(=O)N(C)C[C@@H]1Oc2ccc(NS(=O)(=O)c3ccc(F)cc3)cc2CC(=O)N([C@@H](C)CO)C[C@@H]1C	-10	-1.6	-7	0.0058
CC(C)NC(=O)Nc1ccc2c(c1)C(=O)N([C@@H](C)CO)C[C@H](C)[C@H](CN(C)Cc1ccc(C(F)(F)F)cc1)O2	-7	-3.7	19	0.42
Cc1noc(C)c1S(=O)(=O)N(C)C[C@H]1Oc2ccc(NS(=O)(=O)c3ccc(Cl)cc3)cc2CC(=O)N([C@@H](C)CO)C[C@@H]1C	-16	x	38	0.41
C[C@H]1CN([C@@H](C)CO)C(=O)c2cccc(NS(=O)(=O)c3cn(C)cn3)c2O[C@H]1CN(C)Cc1ccccc1	1	x	-32	0.084
CCCN(C)C[C@@H]1OCCCC[C@@H](C)Oc2ccc(N(C)C)cc2C(=O)N([C@H](C)CO)C[C@@H]1C	-7	1.6	x	0.21
C[C@H]1CN([C@@H](C)CO)C(=O)Cc2cc(NC(=O)C3CCCCC3)ccc2O[C@H]1CN(C)C(=O)Nc1ccc(C(F)(F)F)cc1	-12	-0.7	u	-0.12
C[C@H]1CN([C@@H](C)CO)C(=O)c2cccc(NC(=O)C3CC3)c2O[C@@H]1CN(C)Cc1ccncc1	-20	x	-68	-0.61
COc1ccc(C2Oc3cc(OC)ccc3CC2O)cc1 (stereo not given)	-4	0.5	-2	-0.12
O=C(CCCN1C(=O)c2ccccc2C1=O)Nc1ccc(F)c(Cl)c1	-24	0.9	x	x
C=C1C(=O)O[C@H]2C1C[C@@H](OC(C)=O)[C@@]1(C)[C@@H](OC(C)=O)C[C@@H](OC(C)=O)C(=C)[C@H]21 (stereo not given in full)	11	-13	51	-0.16
COc1ccc(NC(=O)Nc2cccc3c2O[C@H](CN(C)S(=O)(=O)c2ccc(C)cc2)[C@H](C)CN([C@H](C)CO)C3=O)cc1	-29	0.0	15	0.34
C[C@H]1CN([C@@H](C)CO)C(=O)c2cccc(NC(=O)C3CCOCC3)c2O[C@H]1CN(C)S(=O)(=O)c1cccs1	-5	1.5	36	0.17
C[C@H](CO)N1C[C@H](C)[C@H](CN(C)Cc2ccc(Cl)c(Cl)c2)Oc2ccc(NC(=O)Nc3ccc4c(c3)OCO4)cc2C1=O	28	0.9	19	-0.17
C[C@H]1CN([C@@H](C)CO)C(=O)c2cccc(NS(=O)(=O)c3cccs3)c2O[C@H]1CN(C)Cc1ccc(Cl)c(Cl)c1	-5	-0.4	31	-0.55
O=C(NCC(O)c1ccccc1)c1ccc(S(=O)(=O)N2CCOCC2)cc1 (stereo not given)	-1	0.5	x	x
COc1cccc(OC)c1OCCNCC1COc2ccccc2O1 (stereo not given)	5	x	-26	0.16
C/C=C/C/C=C/CCC(=O)[C@H]1O[C@H]1C(N)=O	101*	x	78*	0.16
C[C@H](CO)N1C[C@H](C)[C@@H](CN(C)Cc2ccc(C(=O)Nc3ccccc3N)cc2)Oc2ccc(NC(=O)Cc3cn(C)c4ccccc34)cc2C1=O	25	-2.2	x	-0.33
C[C@H]1CN([C@@H](C)CO)C(=O)c2cc(NC(=O)CCN3CCOCC3)ccc2O[C@@H]1CN(C)C(=O)Nc1ccccc1	-2	1.6	-10	-0.32
CC(=O)c1ccc(NC(=O)CNS(=O)(=O)c2ccc(C(C)(C)C)cc2)cc1	-5	-1.9	x	x
COc1ccc(NC(=O)Nc2cccc3c2O[C@@H](CN(C)Cc2ccncc2)[C@H](C)CN([C@@H](C)CO)C3=O)cc1	-1	x	12	0.19
COc1ccccc1C1=NN(C(=O)CCC(=O)O)C(c2ccco2)C1 (stereo not given)	-7	0.7	x	x
COc1ccc(S(=O)(=O)Nc2ccc3c(c2)C(=O)N([C@@H](C)CO)C[C@@H](C)[C@H](CN(C)C(=O)NC2CCCCC2)O3)cc1	8	0.3	35	0.017
C[C@@H]1CN([C@H](C)CO)C(=O)Cc2cc(NC(=O)C3CCCCC3)ccc2O[C@@H]1CN(C)C(=O)Nc1ccc(C(F)(F)F)cc1	-14	-1.3	-10	-0.037
Cc1noc(C)c1NC(=O)Nc1ccc2c(c1)CC(=O)N([C@H](C)CO)C[C@H](C)[C@H](CN(C)S(C)(=O)=O)O2	-6	1.5	-1	-0.0057
c1cc(-c2nnn(C3CCCCC3)c2NC2CCCCC2)[nH]n1	17	-1.2	-18	-0.17
O=C(COc1ccccc1[N+](=O)[O-])Nc1ccc2oc(-c3ccc(Cl)cc3Cl)nc2c1	-52	3.9	x	x
C[C@H]1CN([C@@H](C)CO)C(=O)c2cccc(NC(=O)Nc3ccc(F)cc3)c2O[C@@H]1CN(C)Cc1ccc(C(=O)O)cc1	-8	x	-8	-0.19
